Mtb H37Rv: M. tuberculosis H37Rv growth inhibitors, H37Rv strain (AID 1626) | M. tuberculosis H37Rv growth inhibition; higher % means a stronger effect | inhibition, % at 10 µM; hits with a dose series show IC50 in µM | hit rate 0.95% among 220,000;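 active = confirmed in a dose series; inconclusive = inhibition above 80% but not taken into the dose series; inactive = below 80% or under 30% at every dose of the series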;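 also: bacteria incubated seven days before Alamar blue readout; 0% = bacteria only wells and 100% = bacteria with antibiotic wells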
Mtb bLac sens: beta-lactam sensitization of Mtb H37Rv, H37Rv. M. tuberculosis H37Rv growth with meropenem, percent inhibition; hits of this screen are not shown here. inhibition, % at 25 µM. AID 434955, 2010. hit rate 0.27% among 330,000;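 active = about 74% or more and at least 40 points above the plate without the antibiotic, then above 30% in a dose series; inconclusive = first-round hits that could not be retested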;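 also: growth measured after seven days incubation then overnight dye step; 0% = bacteria only wells and 100% = bacteria with antibiotic; twin plates without the antibiotic show which effects depend on it; some results filed as inactive read as strong as hits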
RecA intein inh: Mtb RecA intein splicing inhibitors, primary screen, biochemical, fluorescence, HTS; Protein RecA (Mycobacterium tuberculosis (strain ATCC 25618 / H37Rv)), P9WHJ3; cell-free RecA intein splicing; inhibition, %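 (about 9 µM by stock and volumes)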; hit rate 0.75% among 290,000; in the data active = inhibition above about 30%; inconclusive = no clear call, values can overlap the other calls;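 also: 0% = vehicle wells and 100% = reference inhibitor control wells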
Target sequence (P9WHJ3 whole entry, looked up): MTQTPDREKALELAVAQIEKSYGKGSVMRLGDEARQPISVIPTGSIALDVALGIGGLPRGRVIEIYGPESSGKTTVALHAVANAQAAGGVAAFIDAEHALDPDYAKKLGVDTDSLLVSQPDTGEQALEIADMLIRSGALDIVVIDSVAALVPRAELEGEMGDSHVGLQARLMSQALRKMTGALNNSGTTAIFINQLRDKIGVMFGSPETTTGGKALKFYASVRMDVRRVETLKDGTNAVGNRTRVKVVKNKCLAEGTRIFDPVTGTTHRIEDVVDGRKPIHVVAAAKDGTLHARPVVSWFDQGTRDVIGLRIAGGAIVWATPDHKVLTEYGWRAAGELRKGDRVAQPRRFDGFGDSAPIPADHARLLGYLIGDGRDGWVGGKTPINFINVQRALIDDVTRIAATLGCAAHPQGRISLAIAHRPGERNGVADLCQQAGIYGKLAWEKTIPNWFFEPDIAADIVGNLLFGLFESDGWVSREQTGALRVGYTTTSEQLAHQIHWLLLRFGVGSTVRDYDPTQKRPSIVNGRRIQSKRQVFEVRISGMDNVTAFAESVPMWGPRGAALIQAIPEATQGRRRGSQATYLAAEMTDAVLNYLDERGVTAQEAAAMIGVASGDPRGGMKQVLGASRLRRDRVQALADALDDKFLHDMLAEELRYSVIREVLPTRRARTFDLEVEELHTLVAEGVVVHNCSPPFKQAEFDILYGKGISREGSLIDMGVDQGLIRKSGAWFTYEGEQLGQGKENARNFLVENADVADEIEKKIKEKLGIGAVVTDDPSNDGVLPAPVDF
Arbovirus inh: antivirals against arbovirus infection, primary screen, cell-based, full library, 10K replicate subset; arbovirus infection cell-based antiviral screen; inhibition, % at 10 µM; hit rate 0.37% among 200,000;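 active = inhibition from about 30%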;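 also: bluetongue infection of BSR cells; cell survival read as ATP light after 72 h; 0% = infected wells without compound and 100% = uninfected wells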
YopH PTP inh: YopH tyrosine phosphatase inhibitors, primary screen, biochemical, fluorescence Ex485/Em525 | YopH tyrosine phosphatase [Yersinia enterocolitica] | inhibition, %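 (about 10 µM by stock and volumes)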 | AID 898, 2007 | hit rate 0.16% among 140,000;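 active = inhibition of 50% or more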;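 also: controls were vehicle for no effect and minimum signal wells for full effect; inactives centre near -20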
Arbovirus inh repeat: further read-out of Arbovirus inh, marked with its call; inhibition, %; measured here: 10K subset replicate screen; many hits read low in the repeat;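 first of two repeat runs on a subset; 0% = infected and 100% = uninfected wells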
Active calls of the source: *; ? = inconclusive; nt = no result given.

Preview (2 entries):
SMILES	Mtb H37Rv	Mtb bLac sens	RecA intein inh	Arbovirus inh	YopH PTP inh	others
CCOc1cccc(Oc2ncccc2C(=O)/C(C#N)=C/N(C)C)c1	nt	-5	-3.9	0	-31
Cc1ccc(OCc2n[nH]c(=S)n2-c2ccccc2)cc1C	-1%	1	1.0	4	nt

This part in full, repeating the preview:
SMILES	Mtb H37Rv	Mtb bLac sens	RecA intein inh	Arbovirus inh	YopH PTP inh	others
CCOc1cccc(Oc2ncccc2C(=O)/C(C#N)=C/N(C)C)c1	nt	-5	-3.9	0	-31
Cc1ccc(OCc2n[nH]c(=S)n2-c2ccccc2)cc1C	-1%	1	1.0	4	nt
CN(CC(=O)Nc1ccccc1C(F)(F)F)Cc1c(O)ccc2ccccc12	nt	-1	-1.0	nt	nt
Cc1ccc(NC(=O)C2CCN(S(=O)(=O)c3ccc4c(c3)NC(=O)C(C)S4)CC2)cc1C (stereo not drawn)	nt	94	9.0	nt	nt
Cc1cc(C)n(-c2nc(NCCN(C)C)c3c4c(sc3n2)COC(C)(C)C4)n1	9%	1	-1.1	nt	nt
COc1ccc(CCC(=O)O)cc1OC	-10%	-9	-2.6	nt	nt
COCCCNC(=O)/C(C#N)=C/c1c(N2CCN(c3ccccc3)CC2)nc2ccccn2c1=O	nt	0	-170	nt	nt
C=CCNc1nc(C(=O)OCC(=O)NCc2ccccc2OC)cs1	nt	-4	0.8	nt	nt
COc1ccc(S(=O)(=O)N2CCOCC2)cc1NC(=O)CSc1nnc(N)s1	nt	-18	-2.4	nt	nt
O=C(CSc1nc2nc(-c3cccs3)cc(C(F)(F)F)c2c(=O)[nH]1)NCc1ccco1	-12%	-13	0.1	5	-45
CCc1ccc(OCC(=O)NC2CCCCC2)c(Br)c1	nt	14	9.1	nt	nt
Cc1ccc(NC(=O)/C=C/c2ccco2)nc1	3%	2	-3.4	-8	-14
CC(C)C[C@H](NC(=O)OC(C)(C)C)C(=O)N/N=C/c1ccc2nccnc2c1	-2%	-13	-3.6	8	-35
CC(=O)Nc1ccc(N(C(=O)CNC(=O)c2cccs2)C(C(=O)NCC2CCCO2)c2ccccc2)cc1 (stereo not drawn)	nt	-3	0.4	nt	nt
CC(C)Cn1c(SCc2nnc(-c3cccs3)o2)nc(O)cc1=O	-7%	3	2.9	2	-38
CCOc1ccc(/C=C/C(=O)N(C)CC(=O)Nc2cccc(F)c2)cc1OCC	nt	2	-0.7	nt	nt
CCCC(c1nnnn1C1CCCCC1)N1CCN(C(=O)c2ccco2)CC1 (stereo not drawn)	nt	3	0.1	nt	nt
Cc1[nH]c2ccc3ccccc3c2c(=O)c1C/C=C/Cl	nt	5	-0.2	nt	nt
NS(=O)(=O)c1ccc(CNC(=O)COc2ccc3c4c(c(=O)oc3c2)CCCC4)cc1	nt	0	-3.8	nt	nt
O=C(CN1C(=O)C2(OCCO2)c2cc(Br)ccc21)NO	nt	9	5.5	nt	nt
CN1CCN(C(=O)N(c2ccccc2)c2ccccc2)CC1	nt	-6	0.3	nt	nt
CCOC(=O)C1=C2N(C)c3ccccc3N2CCC1=O	-4%	0	nt	3	-32	Arbovirus inh repeat=-1
Cc1cccc[n+]1CC(=O)Nc1ccccc1	nt	2	6.9	nt	nt
CCCn1c(SC(C(=O)Nc2cc(C)ccc2OC)c2ccccc2)nc2ccccc2c1=O (stereo not drawn)	-19%	-3	-3.9	-14	-34
CCc1c(C)c(C#N)c2nc3ccccc3n2c1N1CCN(c2cc(C)ccn2)CC1	nt	-2	-1.5	0	-92
Other entries:
SMILES	Mtb H37Rv	Mtb bLac sens	RecA intein inh	Arbovirus inh	YopH PTP inh	others
Cc1ccc2nsnc2c1S(=O)(=O)N1CCCC1	-8%	10	-4.8	4	-20
CCOc1ccc(NC(=S)NN(C)C(=S)Nc2ccc(OCC)cc2)cc1	?	100	-0.9	-8	-32
Cc1ccccc1COn1nnc2ccc(S(=O)(=O)N3CCOCC3)cc21	nt	-4	-0.7	nt	nt
CCc1nc(N)c(C#N)c(-c2cccn2C)c1C	7%	4	-8.9	nt	-20
CCOC(=O)CNC(=O)C1CCCc2c1[nH]c1ccc(Cl)cc21 (stereo not drawn)	-5%	-3	2.4	4	nt
CCOC(=O)C1(CC2CCCCO2)CCN(S(=O)(=O)c2ccc(OC)cc2)CC1 (stereo not drawn)	-1%	-3	3.3	-2	nt
CCCC[C@@H]1C[C@H]1[C@@H](NC(=O)c1ccccc1)c1ccccc1C(F)(F)F	-6%	-5	1.8	8	-11
Cc1c(C(=O)NCCCN2CCCC2=O)oc2ccc(S(=O)(=O)N3CCOCC3)cc12	-10%	-6	nt	8	-33
Cc1noc(C)c1C(=O)Nc1nc(-c2ccccc2Cl)cs1	9%	-1	-0.2	9	-13
COc1ccc(OCC(=O)Nc2ccc3c(c2)nc(CN2CCN(C(C)=O)CC2)n3C)cc1	-15%	4	1.2	nt	nt
COc1ccc(C2OC(=O)CC2C(=O)NCc2ccc(C)cc2)cc1OC (stereo not drawn)	-14%	-3	-0.2	1	nt
Cc1ccc(-c2nc3c(c(SCC(=O)N4CCOCC4)n2)Cc2c(CO)cnc(C)c2O3)cc1	nt	-3	1.4	nt	nt
OCCOCCn1c(CCNc2nc(-c3ccc(Cl)cc3)cs2)nc2cc(Cl)c(Cl)cc21	2%	31	11	nt	nt
CC1(C)C(=S)N(Cc2ccccc2)c2ccccc21	nt	30	-0.8	nt	nt
CCOc1ccc(C(=O)OCC(=O)Nc2ccc(SC(F)F)cc2)cc1OCC	-7%	17	0.3	0	-30
COc1c(S(=O)(=O)N2CCCC2)ccc(Cl)c1Cl	-8%	-5	-0.2	5	-29
O=C(CCCCn1c(=O)[nH]c2ccccc2c1=O)NCCC1=CCCCC1	-3%	-7	-0.2	4	-4
Cc1ccc(C)c(N2CCN(c3ncccc3[N+](=O)[O-])CC2)c1	nt	5	15	nt	nt
CCOC(=O)C1CCN(C(=O)c2ccccc2NC(=O)C2=C(C)OCCS2)CC1	nt	-10	1.5	nt	nt
Cc1cccc(OCc2nnc(SCC(=O)N3CCN(c4ccccc4)CC3)o2)c1C	0%	0	0.3	-15	-25
COc1ccc(S(=O)(=O)Cc2ccc(C(=O)N3CCN(c4ncccn4)CC3)o2)cc1	nt	2	nt	6	-51	Arbovirus inh repeat=0
Cc1cccc(C(C(=O)NC2CCCC2)N(Cc2cccnc2)C(=O)c2csnn2)c1 (stereo not drawn)	nt	8	0.6	nt	nt
CC(C)(C)c1ccccc1N=Cc1ccc2ccccc2n1	-13%	-1	-1.2	-27	-24
Cc1ccc(CNC(=O)CSc2nnc(CNC(=O)c3ccccc3)o2)cc1	nt	?	1.0	nt	nt
Cc1cc(-c2nnc(CCC(=O)NC(C)c3cccc4ccccc34)o2)no1 (stereo not drawn)	-4%	-6	0.6	2	nt

Four entries picked at random from those above, as already listed:
SMILES	Mtb H37Rv	Mtb bLac sens	RecA intein inh	Arbovirus inh	YopH PTP inh	others
COc1c(S(=O)(=O)N2CCCC2)ccc(Cl)c1Cl	-8%	-5	-0.2	5	-29
CCOc1ccc(C(=O)OCC(=O)Nc2ccc(SC(F)F)cc2)cc1OCC	-7%	17	0.3	0	-30
Cc1noc(C)c1C(=O)Nc1nc(-c2ccccc2Cl)cs1	9%	-1	-0.2	9	-13
CC1(C)C(=S)N(Cc2ccccc2)c2ccccc21	nt	30	-0.8	nt	nt

Continuation:
SMILES	Mtb H37Rv	Mtb bLac sens	RecA intein inh	Arbovirus inh	YopH PTP inh	others
Cc1cc(C(C)(C)C)nc2[nH]n(-c3ccccc3)c(=O)c12	-3%	0	-3.8	1	-6
COc1ccc(CCNC(=O)c2ccc(Cl)cc2)cc1	4%	8	-0.8	2	-8
COC1CCCN(C(=O)c2ccc3oc(Cc4ccc(Cl)cc4)nc3c2)C1 (stereo not drawn)	nt	7	1.9	nt	nt
C/C(=N\NC(=O)C1(C)NC(C)(C)Cc2ccccc21)c1ccccc1 (stereo not drawn)	1%	2	0.9	8	nt
CCOc1ccc(C(CC(=O)O)NC(=O)c2ccco2)cc1 (stereo not drawn)	-5%	0	-1.5	-7	-13
C[C@@H]1NC(=O)N[C@@H]1CCCCCC(=O)O	-4%	-3	2.7	nt	nt
O=C1NC(=O)C2(Cc3ccccc3N3CCCC32)C(=O)N1c1ccc(Cl)cc1 (stereo not drawn)	-12%	1	-6.1	-9	-21
CC(=O)c1ccc(NC(=O)C2CC(=O)Nc3nc4ccccc4n32)cc1 (stereo not drawn)	-6%	-2	0.9	nt	nt
Cn1c(=O)c2c(nc(Sc3ncnn3CC(=O)NC3CCCCC3)n2C)n(C)c1=O	nt	-8	-1.1	nt	nt
COCCCNC(=O)c1ccc2c(=O)n(Cc3ccc(Cl)cc3)c(=S)[nH]c2c1	nt	-3	0.8	nt	nt
Cc1ccn2cc(-c3ccc(O)c(O)c3)nc2c1	nt	-3	-7.0	nt	nt
CCCCSC(=S)NC1CCS(=O)(=O)C1 (stereo not drawn)	-5%	?	2.9	0	-27
COc1ccc(OC)c(S(=O)(=O)n2nnc3ccccc32)c1	-8%	0	2.6	1	-30
Cc1ccc(Cn2c(=N)c(C(=O)NCCN3CCOCC3)cc3c(=O)n4ccccc4nc32)cc1	nt	4	-3.2	nt	nt
CC(C)(CO)NCc1ccc(Br)cc1	2%	0	0.3	0	nt
CC(OC(=O)CCN=C1NS(=O)(=O)c2ccccc21)C(=O)Nc1ccc(F)c(F)c1F (stereo not drawn)	nt	-13	-4.1	nt	nt
COc1ccc(/C=C/C(=O)CCC(=O)O)cc1	-2%	3	0.3	4	nt
CC1CCN(CCCNC(=O)c2cc3c(s2)-c2ccccc2OC3)CC1	nt	2	-23	nt	nt
Cc1ccc(C)[n+](CC(=O)N2CCCCC2)c1	-3%	nt	nt	6	nt
Cc1cc(NC(=O)CCC(=O)N(CC(=O)NC2CCCC2)c2ccc(F)c(Cl)c2)no1	nt	-2	17	nt	nt

Arranged by heavy-atom count (highest first): some entries from above.
SMILES	Mtb H37Rv	Mtb bLac sens	RecA intein inh	Arbovirus inh	YopH PTP inh	others
CC(OC(=O)CCN=C1NS(=O)(=O)c2ccccc21)C(=O)Nc1ccc(F)c(F)c1F (stereo not drawn)	nt	-13	-4.1	nt	nt
Cn1c(=O)c2c(nc(Sc3ncnn3CC(=O)NC3CCCCC3)n2C)n(C)c1=O	nt	-8	-1.1	nt	nt
CC1CCN(CCCNC(=O)c2cc3c(s2)-c2ccccc2OC3)CC1	nt	2	-23	nt	nt
C/C(=N\NC(=O)C1(C)NC(C)(C)Cc2ccccc21)c1ccccc1 (stereo not drawn)	1%	2	0.9	8	nt
COc1ccc(OC)c(S(=O)(=O)n2nnc3ccccc32)c1	-8%	0	2.6	1	-30
Cc1ccc(C)[n+](CC(=O)N2CCCCC2)c1	-3%	nt	nt	6	nt
CC(C)(CO)NCc1ccc(Br)cc1	2%	0	0.3	0	nt

Assay outcomes: PubChem BioAssay, several laboratories

Only part of the results is shown; the hit share may differ from the screen's.
